MARV entry inh: qHTS for inhibitors of binding or entry into cells for Marburg Virus | Marburg virus pseudotyped entry inhibition, cell reporter; control for the full effect not named in the record; about a third of the inactives were read at about 46 µM | Potency, µM (series often up to 37.8 µM), for the others: at the highest dose activity change, negative = inhibition, usual class: inhibitors | 300,000 tested, 1.8% active | AID 540276, 2011; active = well fitted inhibition curve with a large enough effect; inconclusive = small, poorly fitted or top-dose-only effect, or effect the other way; inactive = flat fitted curve, though single readings scatter; tested in HEK293 cells; about a fifth of its hits are not listed in these tables; note: % is set by controls: 0 for no effect and ±100 for the full control effect; luciferase read-out
NS1 inh: qHTS Assay for Inhibitors of Influenza NS1 Protein Function. S. cerevisiae slowed by influenza A NS1, growth recovery by OD600. Potency, µM (highest dose often 46.1 µM), for the others: at the top dose activity, positive = more growth. 270,000 tested, 0.4% active; note: actives are rising curves; nearly all actives have a fitted effect of over 50% in size
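OD600 was taken as the measure of yeast growth restored by compound in an NS1-expressing S. cerevisiae strain. Cells had been washed out of glucose medium and diluted 1:100 into galactose -URA medium, pH 6.0.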
Cruzain inh noDet: qHTS Assay for Promiscuous and Specific Inhibitors of Cruzain (without detergent); Cruzipain (Trypanosoma cruzi), P25779; purified cruzain, Z-FR-AMC fluorescence, no detergent; Potency, µM, for inactives: max response, negative = inhibition, hits mostly inhibitors; 200,000 tested, 2.3% active; AID 1476, 2009; active = well fitted curve in the direction sought with a large enough effect; inconclusive = small, poorly fitted or top-dose-only effect, or another doubt; inactive = no such curve, though single readings can be large; an effect the other way counts as inactive or inconclusive;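 note: plate controls were enzyme without inhibitor for no effect and buffer without enzyme for full effect; nearly all actives have a fitted effect of over 40% in size; top concentration of the series not given in the record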
Target sequence (P25779 123-467 limits assumed): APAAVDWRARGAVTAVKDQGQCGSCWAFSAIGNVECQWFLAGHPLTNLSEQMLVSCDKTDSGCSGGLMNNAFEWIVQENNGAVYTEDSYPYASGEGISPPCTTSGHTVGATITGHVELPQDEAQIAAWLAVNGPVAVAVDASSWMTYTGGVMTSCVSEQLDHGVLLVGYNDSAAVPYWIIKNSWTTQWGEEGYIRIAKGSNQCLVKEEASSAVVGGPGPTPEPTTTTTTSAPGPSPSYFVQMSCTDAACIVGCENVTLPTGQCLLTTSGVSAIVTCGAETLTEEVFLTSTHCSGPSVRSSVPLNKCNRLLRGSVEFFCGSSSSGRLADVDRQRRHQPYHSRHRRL
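Purified cruzain at 1.5 nM, pre-incubated 15 min with compound at room temperature in 100 mM sodium acetate pH 5.5, 5 mM DTT, 0.00005% Triton X-100. Reaction started with 2 uM Z-FR-AMC; AMC fluorescence increase over 60 s gives rate.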
SARS PLP yeast: qHTS of Yeast-based Assay for SARS-CoV PLP. S. cerevisiae expressing SARS-CoV PLpro, growth rescue; control for the full effect not named in the record. Potency, µM (series often up to 32.9 µM), for the others: top-dose activity, positive = growth rescue. 330,000 tested, 0.19% active. AID 485353, 2010; note: 0% is about no effect; nearly all actives have a fitted effect of over 55% in size; growth read by luminescence after 48 h
StopGo reporter: High Throughput Screening for Foot and Mouth Disease Virus Antivirals. human cells with a luciferase reporter of 2A StopGo recoding; control for the full effect not named in the record. Potency, µM (highest dose often 57.9 µM), inactives show at the top dose signal change, negative = less light. 410,000 tested, 1.2% active; active = well fitted falling curve with a large enough effect; inconclusive = small, poorly fitted or top-dose-only effect; inactive = no such curve, though single readings can be large or run the other way; tested in HEK293T cells; note: % is set by controls: 0 for no effect and ±100 for the full control effect; nearly all actives have a fitted effect of over 45% in size; luciferase light after 4 h
Cruzain Triton: qHTS Assay for Promiscuous and Specific Inhibitors of Cruzain (with detergent). Cruzipain (Trypanosoma cruzi), P25779. purified cruzain, Z-FR-AMC fluorescence, 0.01% Triton. Potency, µM, for the others: max response, negative = inhibition, hits mostly inhibitors. 200,000 tested, 0.43% active. AID 1478, 2009; active = well fitted curve in the direction sought with a large enough effect; inconclusive = small, poorly fitted or top-dose-only effect, or another doubt; inactive = no such curve, though single readings can be large; an effect the other way counts as inactive or inconclusive;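 note: plate controls were neutral wells for no effect and buffer without enzyme for full effect; nearly all actives have a fitted effect of over 40% in size; top concentration of the series not given in the record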
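Z-FR-AMC hydrolysis (2 uM substrate) by cruzain (1.5 nM) monitored kinetically at ex 360/em 450 nm after 15 min room-temperature compound exposure; 0.01% Triton X-100, pH 5.5, 5 mM DTT.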
LASV entry inh: qHTS for Inhibitors of binding or entry into cells for Lassa Virus; Lassa virus pseudotype entry inhibition, cell reporter; control for the full effect not named in the record; Potency, µM (highest dose often 37.9 µM), for the others: at the highest dose activity change, negative = inhibition, most hits filed as inhibitors; 300,000 tested, 1.2% active; AID 540256, 2011; active means well fitted inhibition curve with a large enough effect; inconclusive means small, poorly fitted or top-dose-only effect, or effect the other way; inactive means flat fitted curve, though single readings scatter; tested in HEK293 cells; note: % is set by controls: 0 for no effect and ±100 for the full control effect; nearly all actives have a fitted effect of over 50% in size; luciferase read-out
RE007 growth inh: qHTS Assay for Inhibitors of the HIV-1 protein Vpr. S. pombe RE007 Vpr strain, BacTiter-Glo ATP luminescence, 24 h; control for the full effect not named in the record. Potency, µM (highest dose often 92.2 µM), inactives show at the highest dose activity change, negative = less growth. 360,000 tested, 0.21% active; active = well fitted falling curve with a large enough effect; inconclusive = small, poorly fitted or top-dose-only effect; inactive = no such curve, though single readings can be large or run the other way;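 note: % is set by controls: 0 for no effect and ±100 for the full control effect; nearly all actives have a fitted effect of over 50% in size; the assay follows cell death caused by Vpr and the record does not say whether a fall means rescue or toxicity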
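Fission yeast RE007 carrying one integrated HIV-1 vpr copy, seeded at OD 0.01 in PMG+AL medium with 23 nL pinned compound. Grown 24 h at 30 degrees; viability read by BacTiter-Glo luminescence after 5 min.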
* hit, by the source's call; ? = inconclusive; nt = no result given; & = joins results of further samples; [ ] = remark or other dose. Unless noted, calls come from the whole dose curve; as a rule, active means well fitted rising curve with a large enough effect; inconclusive means small, poorly fitted or top-dose-only effect; inactive means no such curve, though single readings can be large or run the other way. Potency is the fitted concentration of half-maximal effect.

SMILES | MARV entry inh | NS1 inh | Cruzain inh noDet | SARS PLP yeast | StopGo reporter | Cruzain Triton | LASV entry inh | RE007 growth inh
COc1ccc(CN(C)C(=O)CC(c2ccccc2)c2ccccc2)cc1 | ? | -21% | nt | 0% | ? | nt | ? | 21%
Cc1cccc(NC(=O)C2CCCN2S(=O)(=O)c2cccc3cccnc23)c1 (stereo not given) | -4% | -17% | 11% | 0% | nt | 6.9% | nt | nt
CCOc1ccc(NC(=O)c2cn(CC(C)C)c(=O)c3c2c2ccccc2n3C)cc1 | 2% | 3% | ? | 21% | -22% | -2.1% | 2% | 1%
Cn1c(Cn2nnc3ccccc32)nnc1SCC(=O)N1c2ccccc2CCc2ccccc21 | ? | -45% | 6% | -6% | -19% | -0.2% | -1% | -10%
C=CCn1c(COc2ccccc2F)nnc1SCC(=O)c1c[nH]c2ccccc12 | 13µM* | 14% | -3% | 9% | -30% | -11% | ? | -29%
Cn1c(NC(=O)c2ccc(C(C)(C)C)cc2)cc(=O)n(C)c1=O | nt | 7% | -5% | 6% | 13% | -7.4% | nt | 1%
CC(C)(C)C(=O)CN1C2=NCCN2c2ccccc21 | 5%[46.1 µM] | 2% | nt | 0% | -6% | nt | 6% | ?
Cc1cccc(-c2nc3cc([N+](=O)[O-])ccc3o2)c1 | ? | 0% | nt | 0% | 47%[activator] | nt | -9% | -18%
COc1ccc2cc(C(=O)N3CCN(c4ccc(F)cc4)CC3)[nH]c2c1 | nt | 3% | nt | -1% | -3% | nt | nt | -3%
COc1ccc(C2C3=C(CC(C)(C)CC3=O)N(C)C3=C2C(=O)CC(C)(C)C3)cc1OC | -5% | 6% | nt | 9% | 0% | nt | ? | -28%
CCC(C)c1ccccc1NC(=S)NC(=O)c1ccco1 (stereo not given) | nt | -28% | nt | 4% | -25% | nt | nt | -29%
C=CCc1ccc(OCC(O)CN2CCN(c3ccccc3OC)CC2)c(OC)c1 (stereo not given) | nt | 2% | nt | 1% | ? | nt | nt | -2%
C=CCOc1cccc(C(=O)N2CCCC(CCC(=O)NCc3ccccc3F)C2)c1 (stereo not given) | ? | -5% | nt | 0% | -4% | nt | -5%[46.1 µM] | -6%
Cc1cc2cc(CNC(=O)COc3ccccc3)ccc2n1C | nt | ? | nt | 0% | -7% | nt | nt | -3%
Cc1ccc(NC(=O)c2oc3ccc(S(=O)(=O)N4CCC5(CC4)OCCO5)cc3c2C)cc1Cl | nt | nt | -2% | nt | -23% | 0.5% | 4%[46.1 µM] | nt
Fc1ccc(-n2nnc(-c3cccnc3Cl)n2)cc1 | nt | -7% | nt | -1% | 15% | nt | nt | -24%
Cc1cc(C)cc(NC(=O)CCn2c(=S)[nH]c3ccccc3c2=O)c1 | -22%[46.1 µM] | -7% | nt | 2% | 34%[activator] | nt | -10%[46.1 µM] | -12%
Cc1nc2ccccc2c(=O)n1-c1ccncc1 | nt | 4% | nt | 0% | -10% | nt | nt | 3%
Cc1ccc2oc(=O)n(CCNC(=O)Nc3ccccc3C)c2c1 | 9%[46.1 µM] | nt | 4% | nt | -16% | 3.7% | 8%[46.1 µM] | nt
O=C1N(Cc2cccc(C(F)(F)F)c2)c2ccccc2S(=O)(=O)N1c1cccc(Cl)c1 | nt | nt | ? | nt | -24% | -3.1% | -11%[46.1 µM] | nt
COc1ccc(C2C=C(c3ccccc3)Nc3nc(NC(C)=O)nn32)cc1 (stereo not given) | ? | 3% | -4%&6% | 5% | 10% | -3.5%&4.0% | 4%[46.1 µM] | nt
COc1ccc(OC)c(-c2cc(C(=O)Nc3cnn(Cc4ccc(Cl)cc4Cl)c3)no2)c1 | -17%[46.1 µM] | nt | -8% | nt | -19% | -1.7% | -9%[46.1 µM] | nt
CC(NC(=O)/C(=C\c1ccco1)NC(=O)c1ccccc1Br)C(=O)O (stereo not given) | 5%[46.1 µM] | nt | nt | 2% | 7% | nt | -3% | 6%
CN(C[C@H](Cc1ccccc1)N(C[C@H](Cc1ccccc1)N(CCc1cc(C(F)(F)F)cc(C(F)(F)F)c1)N=O)N=O)N=O | nt | 3% | nt | -1% | -16% | nt | nt | -8%
CCOC(=O)c1c(NC(=O)OC)sc(C(=O)N(C)C)c1C | -19% | 8% | -1% | 10% | -9% | -5.2% | 12% | -9%
O=C1C(C=NCCCn2ccnc2)=C(O)c2ccccc21 | ? | 1% | nt | nt | 40%[activator] | nt | 12% | -4%
Cc1ccc(-n2cc(C(=O)c3cc(Cl)ccc3O)cc(C#N)c2=O)cc1 | ? | -48% | ? | -62% | -8% | -14% | -10% | nt
O=S(=O)(/N=C(/Nc1ccccn1)c1ccccc1)c1ccccc1 | 10% | 3% | 3% | 4% | nt | 5.2% | 8% | 12%
COC(=O)c1[nH]c2ccc(C)cc2c1NC(=O)Nc1ccccc1OC | -29% | -98% | 21% | 1% | -21% | -2.3% | -18% | 2%
CC1CCCCN1CC(=O)Nc1cc(S(=O)(=O)N2CCOCC2)ccc1N1CCCC1 (stereo not given) | -7%[46.1 µM] | 3% | nt | 3% | 3% | nt | -16% | -2%
NNC(=O)CCN(Cc1ccco1)S(=O)(=O)c1ccc(Cl)cc1 | nt | 8% | nt | 0% | -15% | nt | nt | -11%
CC(C)(C)NC(=O)Cn1nc(C(F)(F)F)c2c1CCCC2 | -12%[46.1 µM] | 1% | nt | -1% | -10% | nt | -4%[46.1 µM] | -2%
COCCCNC(=O)CSc1nc2ccccc2c(=O)n1Cc1ccc2c(c1)OCO2 | ? | nt | nt | 0% | 11% | nt | 23% | -20%
CCN(CC)CCN(C(=O)Cn1nnc(-c2ccc(C)o2)n1)C(C(=O)NC(C)(C)C)c1cccs1 (stereo not given) | ? | 2% | nt | 0% | 12% | nt | -2%[46.1 µM] | 1%
O=C(Nc1cccs1)Nc1cccnc1Cl | -2%[46.1 µM] | -3% | nt | -1% | 18% | nt | -8%[46.1 µM] | -6%
CCO[C@H]1OC(C(N)=O)=C[C@@H](c2coc3ccccc3c2=O)[C@@H]1CCCO | nt | -2% | nt | -1% | -15% | nt | nt | 8%
O=C(CCCn1c(=O)c2ccccc2n(CC(=O)NCc2ccco2)c1=O)NCc1ccco1 | ? | 8% | 15% | 0% | 0% | 4.5% | 1% | 11%
O=C(CN(CC1CCCO1)C(=O)CNS(=O)(=O)c1ccccc1)NCCc1ccccc1 (stereo not given) | ? | 7% | nt | 1% | -5% | nt | -5% | 6%
Cc1ccc(C(=O)C2(C)N(O)C(C)C(c3cccs3)=[N+]2[O-])cc1 (stereo not given) | -5% | 15% | 3% | 2% | nt | 3.4% | 0% | -9%
C/C(=N\NC(N)=S)C1(C)CC2(CC(C)(C)OC2=O)C(=O)O1 (stereo not given) | 1% | 7% | nt | 3% | -5% | nt | ? | -28%
Cn1c(N2CCN(C(=O)Nc3ccc(C(F)(F)F)cc3)CC2)nc2ccccc21 | ? | -4% | 0% | 3% | -8% | -4.4% | -19% | -19%
CC(=O)N1CCN(S(=O)(=O)c2ccc(C)cc2)C1c1ccc(N(C)C)cc1 (stereo not given) | -10% | 6% | 14% | 4% | -21% | 5.2% | -9% | -7%
Cc1ccccc1-n1c(SCC(=O)NCc2cccs2)nc2ccccc2c1=O | -20% | -16% | -5% | 16% | -5% | -5.8% | -18% | nt
COc1ccc2oc(=O)c(-c3cn4c(n3)sc3cc(OC)ccc34)cc2c1 | nt | nt | 6% | nt | -1% | 2.7% | 21%[46.1 µM] | nt
O=C(Cn1nnc(-c2ccc(F)cc2)n1)N1CCCCC1 | -1%[46.1 µM] | 5% | nt | 1% | 7% | nt | 11%[46.1 µM] | -6%
O=C(O)C1CC(=O)n2c(nc3ccccc32)S1 (stereo not given) | 1% | -3% | 0% | 7% | -16% | 3.0% | -2% | 10%
Cc1ccccc1CS(=O)(=O)CCC(=O)NCCCN1CCN(c2ccccc2F)CC1 | -20%&-20% | -4% | 5% | -2% | -15% | 0.6% | 10% | 4%
CCOC(=O)C1CCN(C(=O)Cc2cccs2)CC1 | ? | -4% | -2% | 15% | -12% | -3.1% | -3% | 0%
Cc1ncoc1C(=O)Nc1ccc2c(c1)OCCO2 | -2% | -1% | -5% | -12% | -7% | -6.3% | -29% | -12%
COc1ccc(C(C(=O)NC2CCCCC2)N(C(=O)CCl)c2cccc(Cl)c2)cc1 (stereo not given) | ? | 7% | ? | -7% | 25µM* | -2.0% | 3.5µM* | -9%
O=C(O)Cc1ccc(S(=O)(=O)Nc2ccccc2C(=O)O)cc1 | 1%[46.1 µM] | nt | nt | -2% | 3% | nt | -1%[46.1 µM] | 5%
COc1ccc(Nc2cc(C)nc3ncnn23)cc1 | 17%[46.1 µM] | nt | nt | nt | 4% | nt | -2%[46.1 µM] | 14%
COc1ccc(S(=O)(=O)N(CC(=O)N2CCN(C)CC2)c2ccc(C)cc2)cc1OC | 30% | 1% | -1% | 3% | 28% | 7.6% | -16% | 13%
COc1cc(C(=O)Nc2ccc(-c3nnc(-c4ccco4)o3)cc2)cc(OC)c1OC | ? | -20% | ? | 1% | -12% | 0.8% | 8% | 8%
CCCc1ccc(OCc2ccc(C(=O)N/N=C/c3cccc([N+](=O)[O-])c3)o2)c(OC)c1 | ? | -4% | 6.3µM* | 2% | -1% | 3.2% | ? | 2%
CC(=O)Cc1c(C(=O)O)c(C)nn1-c1ccccc1 | 4%[46.1 µM] | 6% | nt | 0% | -15% | nt | 9% | 3%
Cc1nc(NCCCn2ccnc2)c2ccccc2n1 | -24% | 3% | 3% | 0% | -8% | 1.1% | 17% | -16%

Screens from PubChem.
